# Bioassay records deposited in PubChem BioAssay by National Center for Advancing Translational Sciences (NCATS).
# 2A firefly – FMDV 2A StopGo reporter, firefly signal | HEK cells with a luciferase reporter of 2A StopGo recoding | Potency, µM (doses to about 57.5 µM), for the others: at the highest dose signal change, negative = less light | hit rate 0.23% among 120,000 | AID 1745856; active = well fitted falling curve with a large enough effect; inconclusive = small, poorly fitted or top-dose-only effect; inactive = no such curve, though single readings can be large or run the other way; also: nearly all actives have a fitted effect of over 60% in size; overnight with compound
# 2A Renilla – lowers the Renilla signal of an FMDV 2A StopGo reporter | HEK cells with a luciferase reporter of 2A StopGo recoding | Potency, µM (titrated, usually from 57.5 µM), inactives show top-dose signal change, negative = less light | hit rate 0.32% among 120,000; active means well fitted falling curve with a large enough effect; inconclusive means small, poorly fitted or top-dose-only effect; inactive means no such curve, though single readings can be large or run the other way; also: nearly all actives have a fitted effect of over 55% in size; overnight with compound
# An asterisk follows results filed as active; ? = inconclusive; & = joins results of further samples; [ ] = dose if it differs, or a comment. % is scaled to controls: 0 for no effect and ±100 for the full control effect; potency is read from the fitted curve at half-maximal effect. Random draw from the library; about 0.55% have a hit in one of these screens.
Structure	2A firefly	2A Renilla
COc1cc(CNC(=O)c2cc(C3CC3)nc3onc(C)c23)ccc1OC(F)F	-10%	-5%
O=C(NCC1CC1)C1CC1c1ccncc1 (stereo not given)	-8%	-17%
COc1ccc(-c2nc(CNC(=O)Nc3ccc(C)cc3Cl)c(C)o2)cc1	18%	9%
Cn1nc(C(=O)NCc2ccccc2)c2c1-c1ccccc1SC2	52%[activator]	65%[activator]
C=CCn1c(SCc2cccc(C)c2)nc2c1c(=O)n(C)c(=O)n2C	-13%	-17%
O=C(CCc1ccccc1)NCCc1c[nH]c2ccccc12	43%[activator]	-3%
COc1cc(Cl)c(C)cc1NC(=O)Cn1ncc2c([nH]c3ccccc32)c1=O	-6%	-10%
N#Cc1nc(-c2cccc3ccccc23)oc1NCc1ccc(F)cc1	0%	248%[activator]
COc1cccc(-c2nnc3sc(NC(=O)C(C)C)nn23)c1	20%	-4%
Cc1ccc(C(CC(=O)Nc2cc(C)cc(C)c2)N2Cc3ccccc3C2=O)cc1 (stereo not given)	-25%	171%[activator]
O=C(O)C/C(=C/c1ccc(Cl)s1)c1nc2ccccc2o1	12%	-4%
CCOc1cc(S(=O)(=O)N(CCO)CCO)ccc1Cl	2%	-1%
O=C(NCc1ccco1)c1c[nH]c2ccc(S(=O)(=O)Nc3ccc(F)cc3F)cc2c1=O	0%	177%[activator]
Cc1ccc(Cl)cc1N1CCN(Cc2nnc(-c3ccc4c(c3)OCO4)o2)CC1	-11%	-6%
COc1ccc(OC)c(S(=O)(=O)NCCc2csc(-c3cccc(F)c3)n2)c1	8%	327%[activator]
Cn1c(COc2ccccc2Cl)nnc1SCCn1cccn1	31%[activator]	11%
CCc1ccc(CN2C(=O)c3ccccc3C2C(=O)NCCc2ccc(OC)c(OC)c2)cc1 (stereo not given)	-7%	20%
CCOc1ccccc1NC(=O)N1CCN(Cc2nc(-c3ccc(C)cc3)oc2C)CC1	-6%	-18%
Cc1oc2cc(OCC(=O)N3CCN(CCO)CC3)ccc2c(=O)c1Oc1ccccc1	-2%	-3%
O=c1c(C2CC(c3ccc(-c4ccc(Br)cc4)cc3)Cc3ccccc32)c(O)sc2ccccc12 (stereo not given)	?	?
COc1ccc(N2C(=O)CCS2(=O)=O)cc1S(=O)(=O)N1CCN(c2ccccc2)CC1	-3%	-3%
COc1ccc(C(C)(C)C)cc1NC(=O)Cc1nc(-c2ccccc2)oc1C	10%	2%
CC(CC(=O)NC1CCCCC1)(C(=O)O)c1ccccc1 (stereo not given)	0%	-1%
Cc1cccc(N2CCN(C(=O)C3CCN(S(=O)(=O)c4c(C)noc4C)CC3)CC2C)c1 (stereo not given)	?	-38%
Cc1ccc(-n2c(=O)c3sc4ccccc4c3n(CC(=O)NC3CCCC3)c2=O)cc1C	3%	3%
CCc1ccc2c(c1)C(O)(CC(=O)c1ccc(F)cc1)C(=O)N2 (stereo not given)	28%	2%
NS(=O)(=O)c1ccc(N/N=C/c2sc(Nc3ccccc3)nc2Cl)c([N+](=O)[O-])c1	6%	-8%
CCOc1nc2ccccc2nc1N1CCC(C(=O)Nc2ccc(Cl)cc2)CC1	-13%	-12%
C[C@@H](c1ncncc1F)C(O)(Cn1cncn1)c1ccc(F)cc1F (stereo not given in full)	-13%[11.5 µM]	-6%
COc1ccc(-c2noc(CN(C(=O)Nc3cccc4ccccc34)C(C)C)n2)cc1	29%	5%
CCS(=O)(=O)N1CC(=O)N(c2cccc(C)c2C)C(C)(C(=O)NC2CCCCCC2)C1 (stereo not given)	-10%	-6%
CCOC(=O)c1c(NC(=O)/C(C#N)=C/c2ccccc2)sc2c1CCC2	-18%	-8%
CC(C)c1ccc(CN(C(=O)Cc2c[nH]c3ccccc23)C2CC2)cc1	46%[activator]	13%
CCN(CC)CCOC(=O)c1ccc(NC(=O)c2nn(C)c3c2COc2ccccc2-3)cc1	93%[activator]	-20%
CCOc1ccc(N2CC(NC(=O)c3cccs3)CC2=O)cc1 (stereo not given)	-2%&-12%	20%&12%
COc1ccc(NC(=O)Cn2ccn(-c3ccc(F)c(F)c3)c(=O)c2=O)cc1Cl	-24%	-21%
Cc1ccc(-c2ccc3nnc(C)n3n2)cc1S(=O)(=O)Nc1cccc(Cl)c1	24%	-7%
CCc1ccc(S(=O)(=O)c2nnn3c2nc(N2CCC4(CC2)OCCO4)c2sccc23)cc1	4%	-3%
Cc1ccc(CSc2cn(CC(=O)N3CCCCCC3)c3ccccc23)cc1	96%[activator]	39%[activator]
Cc1c(C(=O)c2ccccc2)oc2cc(NC(=O)c3cccnc3)ccc12	-2%	-8%
Cc1ccc(Cl)cc1N1CCN(C(=O)CN2C(=O)COc3ccc(S(=O)(=O)N4CCOCC4)cc32)CC1	-5%	5%
CC(Oc1ccc(F)cc1)C(=O)Nc1ccc2nsnc2c1 (stereo not given)	11%	6%
CCN(CC(=O)NC)S(=O)(=O)N1CCCCCC1	-6%	-10%
CCOC(=O)c1[nH]c(C)c(CCC(=O)NCc2ccccc2Cl)c1C	-4%	31%[activator]
CCS(=O)(=O)c1ncc(Cl)c(C(=O)Nc2ccc(S(=O)(=O)N(C)c3ccccc3)cc2)n1	?	-16%
O=C(/C=C/C=C/c1ccc([N+](=O)[O-])cc1)c1ccccc1	28%	17%
O=C(/C=C/c1ccc(-c2ccccc2Br)o1)c1ccccc1	105%[activator]	-2%
Cc1oc(-c2ccccc2)nc1CC(=O)N(C)CC(=O)Nc1cccc2ccccc12	-5%	11%

# Given field by field: 4 of the compounds above
> Cc1ccc(Cl)cc1N1CCN(C(=O)CN2C(=O)COc3ccc(S(=O)(=O)N4CCOCC4)cc32)CC1
  2A firefly: -5% | 2A Renilla: 5%
> Cc1c(C(=O)c2ccccc2)oc2cc(NC(=O)c3cccnc3)ccc12
  2A firefly: -2% | 2A Renilla: -8%
> Cc1ccc(CSc2cn(CC(=O)N3CCCCCC3)c3ccccc23)cc1
  2A firefly: 96%[activator] | 2A Renilla: 39%[activator]
> CC(Oc1ccc(F)cc1)C(=O)Nc1ccc2nsnc2c1 (stereo not given)
  2A firefly: 11% | 2A Renilla: 6%

# Next entries follow.
Structure	2A firefly	2A Renilla
CCN1CCN(c2ncc3c(n2)CCN(Cc2ccc(OC(C)C)cc2)C3)CC1	-1%	-8%
COc1cccc(Cn2c(=O)n(-c3cccc(Cl)c3)c(=O)c3c4c(sc32)CN(C(C)=O)CC4)c1	-11%	32%[activator]
O=C(CSc1cn(CC(=O)N2CCCCC2)c2ccccc12)NCc1ccccc1Cl	-2%	113%[activator]
Fc1ccc(CSc2ncc(-c3ccccc3)nn2)cc1	72%[activator]	21%
COC(=O)c1[nH]c2ccccc2c1NC(=O)CN1CCC2(CC1)OCCO2	15%	5%
CCn1c(C)cc(C(=O)CSc2nc3cc([N+](=O)[O-])ccc3o2)c1C	3%	-8%
COc1cc(NC(=O)CCc2c(C)nc3c(-c4ccc(F)cc4)c(C)nn3c2C)cc(OC)c1OC	-12%	-5%
Cc1ccc(-c2nnc(Nc3cccc(Br)c3)c3ccccc23)cc1S(=O)(=O)NCC1CCCO1 (stereo not given)	10%	-1%
COc1ccc2oc(=O)c(-c3nc(-c4nonc4N)no3)cc2c1	1%	14%
O=C(OC1CCOC1=O)c1ccccc1Sc1ccc(C(F)(F)F)cc1[N+](=O)[O-] (stereo not given)	-10%	-13%[1.06 µM]
COc1ccc(/C=C(/Cl)c2nc3ccccc3s2)cc1	0%	10%
CCOc1ccc(S(=O)(=O)c2cn(CC)c3ccc(F)cc3c2=O)cc1	-1%	65%[activator]
CCOC(=O)CN1C(=O)C(O)(CC(=O)c2cc(OC)ccc2OC)c2ccccc21 (stereo not given)	-14%	-9%
CC(C)C(Br)C(=O)Nc1ccc(F)cc1 (stereo not given)	16%	-14%
Cc1ccc(C)c(NC(=O)c2ccc(CN3CC(=O)N4CCCCC4C3=O)cc2)c1 (stereo not given)	-7%	-8%
CC(=O)c1ccc(S(=O)(=O)NCc2ccc(C(=O)N3CCN(c4cccc(C)c4)CC3)cc2)cc1	-11%	-29%
Cc1ccc(Oc2nc3c(c(=O)n(Cc4ccccc4Cl)c(=O)n3C)n2C)cc1C	-10%	-6%
N#C/C(=C/c1cccc(Oc2ccc(Cl)cc2)c1)c1nc2ccccc2[nH]1	3%	?
CCCNc1c(NC(=O)COc2ccccc2C)c(=O)oc2ccccc12	-5%	3%
Cc1[nH]c(C)c(S(=O)(=O)N2CCN(c3cccc(Cl)c3)CC2)c1C(=O)N1CCCCC1	?	?
O=C(COC(=O)c1c2c(nc3ccccc13)CCCC2)c1ccc(Oc2ccc(Cl)cc2[N+](=O)[O-])cc1	0%	0%
Cc1[nH]c2ccc(F)cc2c1CC(=O)NCCCN1CCCCC1	7%	-9%
COc1ccccc1-c1c(C(F)(F)F)oc2cc(OCC#N)ccc2c1=O	-19%	-16%
COc1cc(-c2nc3ccc(C)cn3c2Nc2ccc3c(c2)OCO3)cc(OC)c1O	33%[activator]	92%[activator]
COc1cc(F)ccc1-c1ccc(=O)n(Cc2cccc(F)c2)n1	77%[activator]	36%[activator]
Cc1c(Cl)cccc1NC(=O)C1CCCc2ccccc21 (stereo not given)	8%	-7%[1.06 µM]
Cc1[nH][nH]c(=O)c1C(c1ccccc1OCc1ccccc1Cl)c1c(C)[nH][nH]c1=O	12%	-15%
O=C(C1CCCN(S(=O)(=O)c2cccs2)C1)N1CCN(c2cccc(Cl)c2)CC1 (stereo not given)	?	?
O=C(Cn1ncc2c([nH]c3ccccc32)c1=O)NCCCN1CCN(c2ccc(F)cc2)CC1	-19%	-10%
Cc1ccc(Cc2nc3ccccc3nc2SCC(=O)NCc2ccccc2Cl)cc1	8%	8%
CCOc1ccc(C(c2c(O)cc(C)n(CCOC)c2=O)N2CCN(c3ccc(F)cc3)CC2)cc1 (stereo not given)	-27%	-8%
Cc1ccc(NC(=O)CCS(=O)(=O)c2cccc3nonc23)c(C)c1	7%	-6%
O=C(CCCCCn1c(=O)[nH]c2ccccc2c1=O)NCc1cccc(Cl)c1	63%[activator]	1%
O=C(O)c1ccc2c(c1)c(C(C(=O)O)N1CCCC1)cn2Cc1ccccc1 (stereo not given)	-1%	-3%
Cc1cccc(-n2nnc(-c3nc(-c4cccs4)no3)c2N)c1C	99%[activator]	-3%
COc1cc(NS(=O)(=O)c2ccc(NC(=O)C(C)Oc3ccc(Cl)cc3Cl)cc2)nc(OC)n1 (stereo not given)	-10%	57%[activator]
COc1cc(NC(=O)CCc2c(C)nc3c4c(C)cc(C)nc4nn3c2C)cc(OC)c1	-15%	-15%
C/C=C/c1ccc(OCC(O)CNCc2ccc(OC)cc2)c(OC)c1 (stereo not given)	-18%	-22%
O=C(C1CN(C(=O)c2nn(-c3ccccc3)c(=O)c3ccccc23)c2ccccc2O1)N1CCCCC1 (stereo not given)	-7%	0%
CCSc1ccccc1C(=O)Nc1ccc(-c2nc3ccccc3s2)c(O)c1	67%[activator]	-6%
CC(C)(C)c1cc(NC(=O)Nc2ccc(Cl)c(Cl)c2)no1	12%	?
CCCN1CNC(=S)N(N2CN(CCC)CNC2=S)C1	0%	0%
COc1ccc(N2CC(C(=O)Nc3ccc(NC(C)=O)cc3)CC2=O)cc1 (stereo not given)	0%	-26%
CCCOC(=O)c1c(-c2ccc(OCC)cc2)csc1NC(=O)c1ccoc1C	-6%	-6%
O=C(Cc1n[nH]c(=O)c2ccccc12)NCCCc1ccccc1	0%	7%
CC(=O)N1c2ccc(S(=O)(=O)N3CCCC3)cc2CC1C(=O)NCCc1ccccc1Cl (stereo not given)	0%	2%
O=C1CC(C(=O)Nc2ccc(F)cc2)n2nc(-c3ccc(Cl)cc3)cc2N1 (stereo not given)	-11%	1%
CC(=O)Nc1ccc(S(=O)(=O)Nc2cc3c(cc2SC2CCCCC2)n(C)c(=O)n3C)cc1	6%	54%[activator]
CCOCCCNc1oc(/C=C/c2ccccc2OC)nc1C#N	204%[activator]	63%[activator]
CC(C)N(C(=O)COC(=O)c1cc2ccccc2[nH]1)C(C)C	33%	11%
CCOc1cccc(C(=O)Nc2ccc(-c3nc4ncccc4o3)cc2C)c1	18%	-4%
CC(C(=O)NCc1ccc(Cl)cc1)n1ccc2cc(S(=O)(=O)N3CCCC3)ccc21 (stereo not given)	-14%	30%
COc1ccc(-n2ncc3c(Nc4ccc(Cl)c(Cl)c4)ncnc32)cc1	0%	9%
COC(=O)CC1c2cc(OC)c(OC)cc2CCN1Cc1nc(C)no1 (stereo not given)	3%	-9%
CC(=O)N1CCCc2cc(S(=O)(=O)N3CCCC(C(=O)Nc4cccc(F)c4)C3)ccc21 (stereo not given)	?	-20%
O=C(NC1CC1)C(Sc1cc(Cl)ccc1Cl)c1ccc(F)cc1 (stereo not given)	-1%	0%
O=C1CCc2cc(S(=O)(=O)NCc3ccc(Cl)cc3)cc3c2N1CCC3	15%	94%[activator]
CCOC(=O)C1CCN(CC(=O)N2CCCc3c2c(=O)oc2ccc(OCc4ccccc4)cc32)CC1	-23%	2%
